Screening data (PubChem)
Menin MLL FP FL = displaces fluorescein MLL peptide from human menin | AID 1766 | FP activity change, % at 61.4 µM | Fluorescence polarization, fluorescein-MLL peptide displacement from menin | 290,000 tested, under 10 active; inconclusive = falling polarisation curve, or a change in total fluorescence; inactive = total fluorescence flat and polarisation flat or rising; no compound was filed as active; the % refers to the polarisation; negative = inhibition;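 also: % of control where 0% means no effect; inhibitors lower the polarisation; unlabelled MLL peptide was the positive control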
CtBP-E1A blk = inhibitors of CtBP/E1A interaction | activity change, % (test concentration not listed) | AlphaScreen GST-E1A/His-CtBP binding, 1536-well; hits give low values; control for the full effect not named in the record | 340,000 tested, 0.49% active; in the data active means activity change below about -65%; inconclusive means about -30% to -65%; inactive means above about -30%; also: % is scaled to controls: 0 for no effect and ±100 for the full control effect; compound concentration not given in the record
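AlphaScreen with 125 nM GST-E1A and 125 nM His-CtBP (5X stocks) in Tris pH 8.0, 300 mM NaCl, BSA, Tween 20, TCEP. Compounds preincubated 2 h at 37 deg C, then glutathione donor/nickel acceptor beads added for 1 h at 37 deg C in dark.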
Sfp PPTase inh = inhibitors of Bacillus subtilis Sfp phosphopantetheinyl transferase; Potency, µM, without a hit: max response, negative = inhibition, most hits filed as inhibitors; Q9F4F7; 310,000 tested, 3.5% active; AID 1490; Biochemical Sfp PPTase activity, qHTS; active = well fitted inhibition curve with a large enough effect; inconclusive = small, poorly fitted or top-dose-only effect, or another doubt; inactive = no such curve, though single readings can be large or run the other way;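 also: the enzyme is Sfp with the accession as filed and its product quenches rhodamine fluorescence; potency is read from the fitted curve at half-maximal effect; 0% = enzyme reaction without inhibitor and -100% = no enzyme wells; top concentration of the series not given in the record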
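After 15 min at room temperature with compound, 15 nM Sfp received 5 uM rhodamine-CoA plus 12.5 uM BHQ-2-ybbR (50 mM Hepes pH 7.6, 10 mM MgCl2). Rate came from the fluorescence difference over 30 min, ex 525/em 598 nm.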
TRPV1 potentiator = human TRPV1 potentiation; Q8NER1; TRPV1-expressing cells, Fluo-8 calcium influx, capsaicin EC20 potentiation; host cell line not named in the record; control for the full effect not named in the record; potentiation, % at 8.33 µM; 320,000 tested, 0.02% active; AID 540277; active means potentiation above 80%; inconclusive means 30% to 80%; inactive means below 30%; also: 0% is about no effect
Target sequence (Q8NER1 whole entry, looked up): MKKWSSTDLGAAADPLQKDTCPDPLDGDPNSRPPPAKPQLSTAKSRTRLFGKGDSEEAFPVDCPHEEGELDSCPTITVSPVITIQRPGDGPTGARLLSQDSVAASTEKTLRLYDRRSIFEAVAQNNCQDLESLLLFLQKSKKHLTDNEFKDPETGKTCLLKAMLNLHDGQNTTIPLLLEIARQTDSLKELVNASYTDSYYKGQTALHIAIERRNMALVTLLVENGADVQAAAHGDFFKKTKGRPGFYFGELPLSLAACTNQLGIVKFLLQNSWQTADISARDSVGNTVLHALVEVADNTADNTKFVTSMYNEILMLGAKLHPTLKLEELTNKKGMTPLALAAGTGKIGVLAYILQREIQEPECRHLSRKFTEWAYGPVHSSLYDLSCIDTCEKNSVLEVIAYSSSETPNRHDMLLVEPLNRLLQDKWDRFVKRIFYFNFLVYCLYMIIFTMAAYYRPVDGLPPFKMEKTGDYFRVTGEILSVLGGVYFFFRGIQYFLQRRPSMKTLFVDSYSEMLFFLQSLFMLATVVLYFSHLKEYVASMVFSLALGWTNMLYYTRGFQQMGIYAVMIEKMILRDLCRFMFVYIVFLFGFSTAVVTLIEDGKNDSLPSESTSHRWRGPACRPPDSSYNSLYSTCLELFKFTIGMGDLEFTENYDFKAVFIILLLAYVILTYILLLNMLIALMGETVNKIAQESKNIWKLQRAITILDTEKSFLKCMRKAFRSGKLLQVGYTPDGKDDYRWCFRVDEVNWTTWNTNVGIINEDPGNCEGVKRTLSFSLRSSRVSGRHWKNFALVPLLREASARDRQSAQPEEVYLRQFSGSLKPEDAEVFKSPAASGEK
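Cells expressing TRPV1 were dye-loaded with Fluo-8 and read kinetically: 10 s baseline, 3 min after compound (agonist portion), then 2 min after EC20 capsaicin (allosteric enhancer portion). Calcium-bound dye fluorescence at 480/520 nm.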
gsp agonist = activates gsp, the McCune-Albright syndrome mutation | 340,000 tested, 0.13% active | Potency, µM (top dose mostly 76.9 µM), inactives show at the top dose activation (cAMP increase), most hits filed as activators | gsp mutant cells, cAMP HTRF, 30 min; control for the full effect not named in the record | AID 624287; active = well fitted activation curve with a large enough effect; inconclusive = small, poorly fitted or top-dose-only effect, or another doubt; inactive = no such curve, though single readings can be large or run the other way; cell line not stated here;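 also: phosphodiesterase inhibitor Ro 20-1724 added with compounds to block cAMP breakdown; potency is read from the fitted curve at half-maximal effect; nearly all actives have a fitted effect of over 60% in size; about a fifth of the inactives were tested at one dose only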
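Cells in DMEM/10% FBS with G418 were pretreated with compounds in DMSO plus […] (300 uM stock) for 30 min at 37C. cAMP was measured by HTRF (cAMP-d2 plus anti-cAMP antibody-K) after 30 min at room temperature.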
gsp antag = antagonists of gsp mutant (McCune-Albright syndrome) | gsp-mutant cells, cAMP HTRF, 30 min; control for the full effect not named in the record | Potency, µM (series often up to 76.9 µM), for the others: top-dose activity change, negative = inhibition, actives largely listed as inhibitors | 340,000 tested, 0.4% active; active = falling curve of any shape with a large fitted effect; inconclusive = falling curve, mostly with a smaller effect; inactive = flat or rising curve; cell line not stated here;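 also: intracellular cAMP measured with PDE inhibitor Ro 20-1724 present during compound exposure; potency is read from the fitted curve at half-maximal effect; % is scaled to controls: 0 for no effect and ±100 for the full control effect; nearly all actives have a fitted effect of over 65% in size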
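HTRF cAMP read-out (cAMP-d2 plus anti-cAMP antibody-K in lysis buffer, 30 min RT). Before lysis, cells are exposed to compounds with […] for 30 min at 37C in DPBS containing Ca/Mg, BSA and Tween 20.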
ClpP mod = qHTS Assay for Activators of ClpP | purified B. subtilis ClpP, FRET peptide cleavage, 20 min | ATP-dependent Clp protease proteolytic subunit (Bacillus subtilis (strain 168)), P80244 | Potency, µM (titrated, usually from 57.5 µM), for inactives: at the top dose activity change, negative = active | 340,000 tested, 1.9% active; active = well fitted falling curve with a large enough effect; inconclusive = small, poorly fitted or top-dose-only effect; inactive = no such curve, though single readings can be large or run the other way; also: potency is read from the fitted curve at half-maximal effect; the source files actives as falling curves though it sought activators and does not explain the sign; nearly all actives have a fitted effect of over 65% in size; many hits overshoot -100%
Target sequence (P80244 whole entry, looked up): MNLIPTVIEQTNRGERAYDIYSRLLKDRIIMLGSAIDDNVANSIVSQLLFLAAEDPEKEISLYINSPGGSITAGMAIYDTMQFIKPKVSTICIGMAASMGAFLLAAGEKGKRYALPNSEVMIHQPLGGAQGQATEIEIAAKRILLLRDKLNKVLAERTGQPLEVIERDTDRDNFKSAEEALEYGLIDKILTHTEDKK
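Purified B. subtilis ClpP, 10 microg/mL final in Tris/HCl pH8 with KCl, BSA, glycerol and Tween-20, cleaved an Abz/nitrotyrosine-quenched decapeptide. Fluorescence (ex 320, em 430) was read at 0 and 20 min at room temperature. Delta was normalized to 5.8 microM ADEP and DMSO/no-enzyme controls.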
* = called active by the depositor; ? = inconclusive; / = no result given; & = joins results of further samples; [ ] = dose if it differs, or a comment.

SMILES	Menin MLL FP FL	CtBP-E1A blk	Sfp PPTase inh	TRPV1 potentiator	gsp agonist	gsp antag	ClpP mod
CCn1cc(C2C(C(=O)Nc3cc(C)ccn3)=C(C)NC3=C2C(=O)CC(C)(C)C3)c(C)n1 (stereo not given)	4.5	2.3	14.9%	3.7	-23.3%	-1.0%	10µM*
O=C(CCc1ccccc1)OCCOC(=O)CCc1ccccc1	-3.0	39.9	-8.5%	-2.5	-2.2%[15.4 µM]	5.6%	/
O=[N+]([O-])c1c(Nc2ccc(O)cc2)cc(Cl)c2nonc12	?	/	50.1µM*	-9.2	-25.0%	7.94µM*	-0.3%
Cc1ccc(NC(=O)Cc2nnc(SCC(=O)NC3CCCC3)n2C)cc1	-3.4	4.4	20.1%	-0.9	?	4.4%	/
COc1ccc(S(=O)(=O)Oc2c(OC)cc(C(=S)N3CCOCC3)cc2OC)cc1	0.3	-3.4	28.2µM*	0.1	-10.2%	-6.4%	/
O=C(COC(=O)c1ccccc1NCCO)Nc1cc(C(F)(F)F)ccc1N1CCOCC1	-3.4	15.8	0.4%	1.5	-7.7%	-19.2%	3.7%
O=C(NC(=S)N1CCCCCC1)c1ccccc1Cl	-3.5	-19.7	-12.5%	1.8	-7.2%[15.4 µM]	6.1%	/
COc1ccc(-c2csc(NC(=O)C3COc4ccccc4O3)n2)cc1OC (stereo not given)	6.2	-17.0	-1.1%	0.5	-110.6%[inhibitor]	-18.0%	-1.9%
O=C(NC1CCCC1)C(c1ccccn1)N(C(=O)c1csnn1)c1ccc(F)cc1 (stereo not given)	2.4	12.3	18.0%	3.0	-6.6%	4.5%	/
O=[N+]([O-])c1ccc(/C=N\N2CCN(Cc3ccccc3Cl)CC2)cc1	/	-18.9	/	/	-28.1%	/	1.1%
CCc1cc(CNC(=O)C2CCC(=O)N(Cc3ccccc3F)C2)on1 (stereo not given)	/	3.3	/	/	-19.6%	/	-0.1%
O=C(C1CCCCC1)N1CCC2CC1c1cc(N3CCCCC3)ccc12 (stereo not given)	/	-7.0	/	/	-21.9%	/	0.8%
CCOC(=O)c1cnc(SCC(=O)Nc2nc(C)c(C)s2)nc1N	3.1	-3.6	13.9%	3.0	17.4%	-0.9%	-0.6%
CCN=C1S/C(=C/c2ccc(-c3ccc(F)cc3)o2)C(=O)N1CC	?	23.5	56.2µM*	0.8	-0.9%[15.4 µM]	12.7%	0.5%
COc1ccc(-c2n[nH]c(=S)n2Cc2ccccc2)cc1	-0.3	-1.3	-17.8%	8.8	-0.2%[15.4 µM]	-4.0%	-2.3%
Cc1ccccc1C(=O)Nc1ccnn1C1CCN(Cc2ccc(CO)o2)CC1	/	1.3	6.6%	6.1	-46.9%[inhibitor]	-9.5%	-0.4%
N#CC1=C(N)Oc2n[nH]c(-c3cccs3)c2C1c1ccncc1 (stereo not given)	1.2	-4.7	5.2%	16.8	-1.0%[15.4 µM]	1.4%	-2.2%
Cc1cccc(NS(=O)(=O)c2cccc(C(=O)N3CCCC(C(F)(F)F)C3)c2)c1 (stereo not given)	/	5.3	/	3.9	1.9%	-13.8%	?
O=C(Nc1ccccc1)c1ccc(S(=O)(=O)N2CCOCC2)cc1	1.3	1.2	16.7%	-10.1	-18.0%	7.7%	-0.1%
CC1(C)CNC(=O)CC(C)(C)N1O	-0.7	-29.0	12.1%	-0.7	?	12.2%	-1.6%
O=C(Nc1cnn(Cc2ccccc2)c1)c1cc2nc(-c3ccco3)cc(C(F)(F)F)n2n1	4.0	-3.3	15.6%	-8.1	12.2%	-15.4%	-3.9%
Cc1nc2cc3sc(C)nc3cc2s1	-5.7	-3.4	11.2%	-0.2	4.4%	7.7%	-2.3%
CN1CCN(Cc2nc3ccccc3c(=O)n2Cc2nc(-c3ccc4ccccc4c3)cs2)CC1	-1.8	-15.4&-17.8	-25.9%	7.2	13.2%&1.5%	10.3%&15.3%	2.3%
COc1ccccc1NC(=O)c1cc2c(=O)n(C)c3ccccc3c2n1C	-0.6	/	-21.7%	19.3	5.1%	-17.1%	?
COc1ccc(C2/C(=C(\O)c3ccc4c(c3)OCCO4)C(=O)C(=O)N2c2nc(C)c(C(C)=O)s2)cc1 (stereo not given)	15.7	-1.5	44.7µM*	-1.3	-12.2%	?	-1.9%
The listing continues:
SMILES	Menin MLL FP FL	CtBP-E1A blk	Sfp PPTase inh	TRPV1 potentiator	gsp agonist	gsp antag	ClpP mod
ON(CCc1ccccn1)CCc1ccccn1	/	-24.1	/	/	-2.1%[15.4 µM]	-3.2%	0.6%
Cc1ccsc1/C=N/NC(=O)c1ccc2c(c1)OCCO2	1.7	-2.0	3.8%	/	-22.5%[15.4 µM]	-7.1%	/
CC1(C)C(C=C(Cl)Cl)C1C(=O)N(Cc1ccccc1Cl)C1CCS(=O)(=O)C1 (stereo not given)	6.1	?	3.7%	-7.6	12.7%	-24.3%	1.7%
O=C(Nc1ccc(S(=O)(=O)NC2CCCC2)cc1)c1cnccn1	-2.4	-4.4	-9.5%	-12.4	15.3%	9.4%	-1.9%
O=C(O)c1cccc(N/N=C/c2ccc(OC(F)(F)F)cc2)c1	-0.8	-1.0	-0.9%	3.9	28.4%	-5.1%	0.3%
COc1ccc(Cn2nnnc2C(c2cc3cccc(C)c3[nH]c2=O)N2CCOCC2)cc1 (stereo not given)	-0.5	4.6	3.3%	2.5	9.6%	-9.1%	-19.7%
Cc1cccc(C(=O)Nc2cc(S(=O)(=O)N3CCOCC3)ccc2N2CCCCC2)c1	/	5.7	/	1.8	23.3%	-41.1%	-2.6%
COc1ccc(/C=C(\NC(=O)c2ccco2)C(=O)Nc2ccc(C(C)=O)cc2)cc1	/	-3.9	5.2%	?	-1.8%[15.4 µM]	-1.9%	-11.2%
CSCC[C@H](NC(=O)CC(C)(C)C)c1nc2ccccc2[nH]1	3.4	-2.4	-7.9%	1.6	6.3%	1.9%	-1.9%
Cc1ccc(S(=O)(=O)CCC#N)cc1	19.2	1.8	10.8%	-0.4	-0.7%[15.4 µM]	6.6%	/
COc1ccc(C)cc1S(=O)(=O)N(C)CC(=O)NCc1ccco1	4.0	-12.4	-13.7%	26.5	4.0%	-0.1%	-5.0%
NC(=O)c1ccccc1N/C=C/C(=O)c1ccc(Cl)cc1	1.2	-8.7	-3.4%	9.8	11.8%	-3.5%	?
CN(C(=O)CSc1cccc[n+]1[O-])C1CCCCC1	/	3.1	/	/	-0.2%[15.4 µM]	2.4%	-1.9%
COc1cc(C(c2nnnn2C2CCCC2)N2CCN(C(=O)c3ccco3)CC2)cc(OC)c1OC (stereo not given)	5.2	-0.1	-3.1%	21.2	-4.4%[15.4 µM]	5.5%	?
Cc1cccn(Cc2c(Cl)cccc2Cl)c1=O	/	-5.7	/	/	15.9%	-1.0%	/
CCN(CC)c1ccc2cc(C(N)=O)c(=N)oc2c1	?	-4.2	-12.8%	-11.3	-4.1%[15.4 µM]	-19.5%	/
Oc1cc(OCc2ccccc2)ccc1-c1[nH]ncc1-c1ccccc1	0.8	-3.6	13.4%	-6.4	-12.6%[15.4 µM]	-5.9%	/
CCOC(=O)C1=C(CSc2nc(CC)c(C)cc2C#N)OC(N)=C(C#N)C1c1ccc(OC)cc1 (stereo not given)	?	-9.3	7.94µM*	-1.1	-24.4%	-20.7%	5.8%
COc1cc(Nc2nc3ccc(Cl)cc3n3cnnc23)cc(OC)c1OC	7.3	-1.8	5.2%	-13.3	18.9%	4.7%	?
COC(=O)NNC(=O)C(C)Oc1ccc(Cl)cc1Cl (stereo not given)	1.1	2.1	3.4%	-2.0	14.6%	2.9%	0.4%
CCN(CC)S(=O)(=O)c1ccc2nc(CSc3nnnn3-c3ccc(O)cc3)[nH]c2c1	1.0	-25.2	3.7%	-6.5	22.2%	-8.8%	-9.4%
Cc1ccc2c(c1)CCCN2C(=O)c1ccncc1	1.3	-13.0	2.6%	-4.0	-26.4%	-5.1%	1.3%
Fc1ccc(CN2CCN(c3ncccn3)CC2)cc1	3.2	8.5	-14.3%	2.3	18.8%	2.1%	-2.1%
COc1ccc(NC(=O)CCn2c(=O)c3cccn3c3ccccc32)cc1	/	?	11.6%	-4.5	24.7%	-9.6%	-3.8%
Cc1noc(C)c1C(=O)Nc1ccccc1-c1ccccc1	2.0	2.6	-11.3%	8.9	23.9%	16.4%	-1.8%
More structures:
SMILES	Menin MLL FP FL	CtBP-E1A blk	Sfp PPTase inh	TRPV1 potentiator	gsp agonist	gsp antag	ClpP mod
Cc1ccc(NC(=O)c2ccc(S(=O)(=O)N3CCOCC3)cc2)cc1	/	-0.5	14.2%	-12.7	7.4%[15.4 µM]	-5.2%	/
CC(C)CC(=O)Nc1cc2nn(-c3ccccc3)nc2cc1Cl	-0.5	-6.0	10.3%	14.7	-23.1%	-13.6%	?
O=C(CCN1CCN(C/C=C/c2ccccc2)CC1)Nc1ccccc1F	5.7	-4.5	-8.7%	-3.4	29.7%	15.6%	1.5%
Cc1ccc(S(=O)(=O)CCN2C=CC(C(F)(F)F)=NCC2)cc1	-1.1	0.7	-2.0%	-12.3	-5.1%[15.4 µM]	-0.6%	/
CC1CCCN(c2nc3c(c(=O)[nH]c(=O)n3C)n2CCCc2ccccc2)C1 (stereo not given)	2.2	4.8	6.3%	-14.2	-10.0%	7.0%	-1.8%
CCOC(=O)c1ccc(COC(=O)CNS(=O)(=O)c2ccccc2)cc1	-0.3	/	9.4%	-13.8	24.6%	-14.3%	0.2%
COc1cccc(/C=N\NC(=O)c2ccc(Cn3cc(Br)c([N+](=O)[O-])n3)o2)c1O	38.2[activator]	-73.7*	?	-11.9	13.8%	-16.7%	/
CCn1c(SCc2cccc(OC)c2)nc2ccccc2c1=O	-3.1	21.0	-9.0%	-6.9	-0.5%[15.4 µM]	-15.7%	/
COCCN1C(=S)N[C@@H](c2cccc(F)c2)C(C(=O)OC)=C1C	2.7&3.2	/	10.6%&-5.0%	3.4&19.1	/	/	/
O=C(Cn1nnc2ccccc21)OCC(=O)c1ccccc1	-0.1	4.7	-14.8%	-2.1	-7.5%	1.6%	-0.2%
